Assay outcomes deposited in PubChem BioAssay by several laboratories.
CBX7 AlphaScr: inhibitors of human CBX7 binding to H3K27me3 peptide. O95931. AlphaScreen His6-CBX7 / biotin-H3K27me3 peptide binding; active compounds read low. normalised signal (fraction of DMSO) (no concentration beside the values). 66,000 compounds, 1.1% hits; in the data active = normalised signal below about 0.5;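 note: 100 nL library stock added to about 20 µL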
Target sequence (O95931 whole entry, looked up): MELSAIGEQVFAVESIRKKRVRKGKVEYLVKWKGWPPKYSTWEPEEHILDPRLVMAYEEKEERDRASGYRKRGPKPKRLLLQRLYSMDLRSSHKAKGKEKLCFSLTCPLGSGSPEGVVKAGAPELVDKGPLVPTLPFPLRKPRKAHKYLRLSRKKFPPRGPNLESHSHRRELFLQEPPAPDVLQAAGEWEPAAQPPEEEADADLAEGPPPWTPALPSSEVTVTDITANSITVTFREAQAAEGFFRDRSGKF
CBX7 AlphaScr z-score: recorded beside CBX7 AlphaScr, whose call it bears; z-score; measured here: z-score of CBX7 signal; some inactives read as strong as hits; reference of the scale not given here;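 same signal on another scale; lower means less binding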
Active calls of the source: *; & = joins results of further samples. Only part of the results is shown; rates above refer to the full screens.

smiles,CBX7 AlphaScr,CBX7 AlphaScr z-score
Cc1ccc(CNC(=O)CS(=O)(=O)Cc2nc(-c3ccccc3Cl)oc2C)cc1,1.1,1.8
Cc1ccc(S(=O)(=O)Nc2nc3ccccc3nc2Nc2ccc(Br)cc2)cc1,0.72,-8
CCN1CCN(C(=O)c2sc3ncnc(N4CCN(c5ccccc5F)CC4)c3c2C)CC1,1.2,2.7
CC(NC(=O)Cn1ncc2c1-c1ccccc1OC2)c1ccc2c(c1)OCCO2 (stereo not drawn),0.93,-2
Cc1cccc(N(CC(O)CN(C)C)S(=O)(=O)c2ccccc2)c1 (stereo not drawn),1.2,0.96
Cc1nc2c(C(=O)N3CCc4ccccc4C3)c[nH]n2c(=O)c1Cc1ccc(F)cc1Cl,0.97,-0.63
CC(=O)c1ccc(NC(=O)CSc2nnc3c(n2)[nH]c2ccccc23)cc1,1.1,0.67
O=C(NCCC1=CCCCC1)c1ccc2c(c1)ncn2-c1cccc(F)c1,0.75,-3
CCOc1ccc(-n2cc(C(=O)Nc3ccc(C)c(F)c3)c3cc(OC)c(OC)cc3c2=O)cc1,1,0.81
Cc1cc(C)n(CCOc2nonc2N)n1,1.1,0.65
C(=C\c1nc2ccccc2n1CCOc1ccccc1)/c1ccccc1,1.3,8.8
Cc1ccc(S(=O)(=O)C2(C(=O)N3CCN(c4cc(Cl)ccc4C)CC3)CC2)cc1,0.95,-2.1
Cc1nc2cccc(-c3cc(-c4ccccc4O)[nH]n3)c2o1,0.77,-0.82
CCOP(=O)(OCC)c1nc(-c2ccccc2Cl)oc1NCc1ccccc1,0.75,-2.7
CCC1c2ccc(C)n2CCN1C(=O)Nc1ccccc1C(F)(F)F (stereo not drawn),0.99,-0.71
COc1cc(Cl)c(C)cc1NC(=O)CCc1c(C)nc2cc(-c3cccc(F)c3)nn2c1C,1,0.03
COc1ccc(CNC(=O)c2ccc3c(c2)N(Cc2ccccc2C)C(=O)CS3)cc1,1.1,1.3
CCCCNC(=O)C1CCN(c2nc3ccc(CC)cc3s2)CC1,1.1,1.1
COC(=O)c1cccc(NC(=O)C23CC4CC(C2)CC(n2cncn2)(C4)C3)c1,0.92,-1.4
O=C(CCN1C(=O)COc2ccccc21)NCCN1CCOCC1,1,0.69
COc1ccccc1N1CCN(C(=O)c2cc(-c3ccccc3O)on2)CC1,1.1,3.7
COc1ccc2c(c1)c(=O)c(S(=O)(=O)c1ccc(C)cc1)cn2Cc1ccc(F)cc1,0.93,-2.5
Clc1cccc(N2CCN(Cc3nc(-c4ccccc4)no3)CC2)c1,1.3,2.9
COc1ccccc1NC(=O)CC1Nc2cc(C)c(C)cc2NC1=O (stereo not drawn),1,0.16
COc1ccc(CCNC(=O)c2cn(CC(C)C)c(=O)c3cc(OC)c(OC)cc23)cc1OC,0.95,-1.2
O=C(CN1CCN(c2ccccc2F)CC1)Nc1nc(-c2ccccc2)cs1,0.88,-1.4
COc1cccc(-c2nc(CS(=O)(=O)CC(=O)NCCCN(CC(C)C)CC(C)C)c(C)o2)c1,1.4,3.6
CCN1CCCC1CNC(=O)Cn1nc(Cc2cccnc2)c2ccccc2c1=O (stereo not drawn),1.2,2.1
Nc1ccc2oc(-c3ccc(Cl)c(Cl)c3)nc2c1,1,0.53
Cc1ccc(CNC(=O)c2cc(=O)[nH]c3ccc(S(=O)(=O)N4CCC(C)CC4)cc23)cc1,0.98,-0.34
CCn1c(C(=O)N2CCC(C(=O)NCc3ccccc3)CC2)cc2sccc21,0.87,-0.55
CCC(C)NC(=O)C1CCN(S(=O)(=O)c2ccc3nc4c(c(C(=O)O)c3c2)CC(C)CC4)CC1 (stereo not drawn),1,1.2
COc1ccc(-n2c(Cc3cc(=O)[nH]c(=O)[nH]3)nnc2SCC(=O)Nc2ccccc2OC)cc1,0.81,-2.9
Cc1cccc(N2CCN(C(=O)C3CCCN(c4nc5ccccc5[nH]4)C3)CC2C)c1 (stereo not drawn),0.95,-0.54
CCOc1ccc(CNC(=O)CN2C(=O)COc3ccccc32)cc1OC,1.1,1
CCOC(=O)c1sc2nc(C)nc(Nc3ccc(C)c(F)c3)c2c1C,1.1,3.4
O=C1CN(C(=O)CCC2CCCC2)C(c2ccccc2)c2cc(F)ccc2N1 (stereo not drawn),0.93,-0.3
CN(C)c1nc(-c2ccccc2)c2cc(Cl)ccc2n1,1.1,0.47
COc1ccc(OCC(=O)Nc2cc(-c3nnc(OC)c4ccccc34)ccc2N2CCCCC2)cc1,0.84,-4.6
CCOCCCNC(=O)c1ccc2c(c1)nc(C)n2-c1ccc(OCC)cc1,0.96,-0.9
COc1ccc(Br)cc1C1C(N2C(=O)c3ccccc3C2=O)C(=O)N1c1ccc(C)cc1 (stereo not drawn),0.96,-1.1
Cc1ccc(CC(C(=O)Nc2ccc(F)cc2)C(C)C(=O)O)cc1 (stereo not drawn),0.92,-0.37
Cc1ccc(-c2nc3cc(C)ccn3c2NC(=O)c2ccccc2)cc1,0.99,-0.35
COc1ccc(OC)c2[nH]c(=O)c(CCNC(=O)Cc3ccccc3)cc12,0.96,-0.47
COc1cccc(C2CC(=O)Nc3c2ccc(C)c3C)c1OC(C)C (stereo not drawn),0.86,-1.8
CCOc1ccc(CN2C(=O)c3ccccc3C2C(=O)NC2CCCC(C)C2C)cc1OC (stereo not drawn),1.1,0.76
NC(=O)C1CCN(C(=O)c2ccc3c(=O)n(C4CCCCC4)c(SCc4ccncc4)nc3c2)CC1,0.83,-2.7
CC(C)COc1ccc(C(=O)Nc2c(C(=O)c3ccc(Br)cc3)oc3ccccc23)cc1,1,0.15
CCOC(=O)c1cnc2ccc(OCC)cc2c1Nc1ccccc1OCC,1,-0.01
Cc1oc(-c2cccc(Cl)c2)nc1CN1CCCC(C(=O)NCCN(C)C)C1 (stereo not drawn),1,0.34

Shown with two lines to a compound: part of the list above
Each structure is followed by: CBX7 AlphaScr	CBX7 AlphaScr z-score
COc1cccc(-c2nc(CS(=O)(=O)CC(=O)NCCCN(CC(C)C)CC(C)C)c(C)o2)c1
  1.4	3.6
CCOc1ccc(CNC(=O)CN2C(=O)COc3ccccc32)cc1OC
  1.1	1

Taken from the entries so far for reference:
smiles,CBX7 AlphaScr,CBX7 AlphaScr z-score
Cc1ccc(CNC(=O)CS(=O)(=O)Cc2nc(-c3ccccc3Cl)oc2C)cc1,1.1,1.8
Cc1ccc(S(=O)(=O)Nc2nc3ccccc3nc2Nc2ccc(Br)cc2)cc1,0.72,-8
CCN1CCN(C(=O)c2sc3ncnc(N4CCN(c5ccccc5F)CC4)c3c2C)CC1,1.2,2.7
CC(NC(=O)Cn1ncc2c1-c1ccccc1OC2)c1ccc2c(c1)OCCO2 (stereo not drawn),0.93,-2
Cc1cccc(N(CC(O)CN(C)C)S(=O)(=O)c2ccccc2)c1 (stereo not drawn),1.2,0.96

Random excerpt: 2 records from the list
smiles,CBX7 AlphaScr,CBX7 AlphaScr z-score
CCn1c(C(=O)N2CCC(C(=O)NCc3ccccc3)CC2)cc2sccc21,0.87,-0.55
COc1ccc(-n2c(Cc3cc(=O)[nH]c(=O)[nH]3)nnc2SCC(=O)Nc2ccccc2OC)cc1,0.81,-2.9

Other records:
smiles,CBX7 AlphaScr,CBX7 AlphaScr z-score
Cc1ccc2nc(-c3cc4ccccc4oc3=O)[nH]c2c1,1.1,3.4
CCc1ccc(NC(=O)CNC(=O)c2nn(-c3ccc(OC)cc3)c(=O)c3ccccc23)cc1,0.95,-0.94
O=C(NC1CCN(Cc2ccccc2)CC1)C1c2ccccc2C(=O)N2CCc3ccccc3C12 (stereo not drawn),1.1,0.089
CCOc1ccc(CCNC(=O)Cn2ncc3c2-c2ccccc2OC3)cc1,1.1,2.1
CC1CCC(NC(=O)c2ccc3c(c2)N(Cc2ccccc2)C(=O)c2ccccc2S3(=O)=O)CC1 (stereo not drawn),0.99,-0.08
Cc1cc(C)c(-n2nnnc2SCC(=O)NCCc2ccccc2)c(C)c1,0.96,-1.1
COc1ccccc1OCC(=O)Nc1ncc(Cc2ccc(C)cc2)s1,0.96,-0.045
O=C(NCc1ccccc1Cl)C1=CCN(S(=O)(=O)c2ccc(F)cc2)CC1,1,-0.0073
COc1ccc2nc(-c3ccccc3)nc(NCCN3CCCC3)c2c1,1.3,4.5
COc1ccc(-n2ncc3c(NCCCO)ncnc32)cc1,1,0.32
CCc1ccc2c(c1)c(=O)c(S(=O)(=O)c1ccc(F)cc1)cn2CC(=O)Nc1cc(C)ccc1C,0.87,-2.1
Cc1ccc(-c2cc3nc(-c4ccccc4)cc(C)n3n2)cc1,1.6,16
Cc1cccc(-c2noc(-c3ccc(C)cc3Cl)n2)c1,1.3,5.6
CCCCOC(=O)c1cccc(NC(=O)Nc2ccc(C)cc2)c1,1.1,0.77
COc1cc(C(=O)Nc2ccccc2-c2nc3ccccc3[nH]2)cc(OC)c1OC,1.1,1.4
CCC1Oc2ccc(C)cc2N(CC(=O)N2CCN(c3ccccc3OC)CC2)C1=O (stereo not drawn),1,0.33
COc1cccc2c(S(=O)(=O)Nc3ccc(C(=O)O)cc3)ccnc12,0.12*,-13*
Cc1nn(-c2cc(C)c3ccccc3n2)c2c1CCC2,0.93,-1
Cc1ccc(S(=O)(=O)c2nc(-c3ccccc3C)oc2N(C)C)cc1,1,0.2
Cn1c(SCc2ccc(C(=O)O)cc2)nnc1-c1ccccc1,1.1,0.72
CC(C)c1ccc(C2CC(=O)Nc3cc4c(cc32)OCO4)cc1 (stereo not drawn),0.8,-2
O=C(Cn1nc(Cc2cccnc2)c2ccccc2c1=O)NCCc1ccsc1,0.99,-0.13
CC1CCN(c2nc(-c3ccc([N+](=O)[O-])cc3)cs2)CC1,0.87,-3.6
COc1ccc(NC(=O)NCCCN2CCN(c3cc(C)ccc3C)CC2)cc1,0.83,-0.23
CCC(C)NC(=O)c1c(-c2ccccc2)noc1C (stereo not drawn),1.1,0.66

Next part:
smiles	CBX7 AlphaScr	CBX7 AlphaScr z-score
CCOc1ccc(CCNC(=O)Nc2ccc3snnc3c2)cc1	1	1
Cn1c(C(=O)N2CCN(c3ccccn3)CC2)cc2sccc21	1	0.29
COc1ccc(C2=NOC(C(=O)NCc3cccnc3)C2)cc1OC (stereo not drawn)	1	0.23
Cc1ccc(S(=O)(=O)N2C(=O)CCC2C(=O)NCCOc2ccccc2)cc1 (stereo not drawn)	1.1	0.51
CNC(=O)C1C2C=CC3(CN(Cc4ccccc4Cl)C(=O)C13)O2 (stereo not drawn)	1	2
COc1ccc(CN2CCN(Cc3ccccc3Br)CC2)c(OC)c1	0.77	-2.7
CC1CCN(C(=O)c2ccc3c(c2)NC(=O)c2ccccc2S3)CC1	0.96	-0.38
CCOc1ccc(-n2ccnc2SCC(=O)Nc2nc3ccccc3s2)cc1	0.94	-0.077
Cc1ccc(-c2nc(SCC(=O)Nc3ccc4c(c3)OCCO4)c(-c3ccccc3)[nH]2)cc1	0.75	-12
O=C(Nc1sc2c(c1C(=O)N1CCCCC1)CCCC2)c1ccccc1Cl	0.96	-0.54
O=C(Nc1ccccc1)C1CCN(S(=O)(=O)c2ccc(F)cc2)CC1	1.1	2.8
CCOC(=O)c1cc(-c2ccccc2)n(CCC(=O)N2CCn3c2nc2ccccc23)c1C	0.85	-2.8
Cc1oc(-c2ccccc2F)nc1CN1CCC(C(=O)NCCc2ccccc2)CC1	1.1	1.5
COc1ccccc1-c1c(C)nn2c(N3CCN(c4cccc(C)c4)C(C)C3)cc(C)nc12 (stereo not drawn)	0.92	-1.1
Cc1ccc(Cn2c(=O)c3cccnc3n(CC(=O)Nc3ccc(Cl)cc3F)c2=O)cc1	0.95	-0.86
COc1cc(C2C(C(=O)Nc3cccc(C)n3)=C(C)NC3=C2C(=O)CC(C)(C)C3)cc(OC)c1OC (stereo not drawn)	1.1	1
COc1ccccc1N1C(=O)c2ccc(C(=O)Nc3ccc(C(=O)O)cc3)cc2C1=O	0.98	-0.66
Clc1ccccc1-c1nnc2sc(-c3ccncc3)nn12	1	0.87
CC12CC3(C)CC(CC(=O)O)(C1)CC(CC(=O)O)(C2)C3	1	0.23
CCOC(=O)c1cnc2ccccc2c1Nc1ccc(C)cc1	0.99	-0.07
Cc1ccc(CN2CCN(CC(=O)NCCCSC3CCCCC3)C2=O)cc1	0.86	-2.6
COc1ccc(OC)c(-c2cc(C(=O)Nc3cccc(Cl)c3)no2)c1	1.2	5
Cc1ccc(CNC(=O)CN2C(=O)COc3ccc(S(=O)(=O)N4CCCCCC4)cc32)cc1	1.2	2.4
CCn1cc(C(=O)NCCN2CCOCC2)c(=O)c2ccc(C)nc21	1	0.38
CCc1nc2ccccc2c(NC(=O)CN2CCN(c3ccccc3)CC2)c1C	1	0.0069
COc1ccc(N2Cc3cccc(C(=O)N4CCOCC4)c3C2=O)cc1	1.1	1
O=C(NCc1ccncc1)c1c(O)c2ccccc2[nH]c1=O	0.94	-0.84
CC(C)C(=O)Nc1nc(-c2ccc(Oc3ccccc3)cc2)cs1	0.95	-1.2
COc1ccc(OC2C(=O)N(c3ccc(F)cc3)C2c2ccc(C)cc2)cc1 (stereo not drawn)	0.97	-0.7
CC(C)(C)c1ccc(C(=O)Nc2ncc(Cc3ccccc3)s2)cc1	1	0.82
Clc1ccc(-c2csc(N3CCC(c4ccccc4)C3)n2)cc1 (stereo not drawn)	1.1&1.2	3.6&5.2
Cc1nn(Cc2ccccc2Cl)c(C)c1NC(=O)c1cc(-c2ccc(Br)cc2)on1	1.1	2.6
Cc1ccc(Nc2nc3nonc3nc2Nc2ccccc2F)cc1C	0.98	-0.34
CCn1c(/C=C/c2ccc3c(c2)OCO3)nc2ccccc2c1=O	1.1	5.4
